Screening data deposited in PubChem BioAssay by Fisher Drug Discovery Resource Center.
NPYLR7 agonist: activates Aedes aegypti NPYLR7 receptor; HEK293T NPYLR7/Galpha15, GCaMP6s calcium fluorescence; activation, % at 10 µM; 270,000 compounds, 0.15% hits; AID 1259423; in the data active = activation above about 40%;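 also: 0% = vehicle and 100% = reference agonist at the receptor; some compounds past the cut are filed as inactive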
NPYLR7 agonist max-min: recorded beside NPYLR7 agonist, whose call it bears; activation, %; measured here: Max-Min RFU normalised activation; some inactives read as strong as hits;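 span of the calcium signal over five minutes; 0% = vehicle and 100% = native peptide agonist; compound fluorescence can raise it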
Active calls of the source: *; & = joins results of further samples.

Results follow in this order: NPYLR7 agonist	NPYLR7 agonist max-min
[1] CCc1cccc2sc(N(CCCN3CCOCC3)C(=O)c3ccc(C#N)cc3)nc12
  0.6	-4.3
[2] COc1ccc(OCC(=O)N=Nc2c(O)[nH]c3ccc(Br)cc23)cc1
  -3.8	-6.6
[3] Oc1cc2c(cc1CN1CCc3ccccc3C1)OCO2
  -5.7	-7.7
[4] COC(=O)c1ccc(NC(=O)c2c(-c3ccccc3Cl)noc2C)cc1
  6.2	8.9
[5] Cc1ccc2nc(C3CC3)cc(C(=O)NCCC(=O)N(C)C)c2c1
  7.0	3.7
[6] Cc1[nH]n(-c2ccccc2)c(=O)c1C(C[N+](=O)[O-])c1ccc(Br)cc1 (stereo not drawn)
  1.9	-1.9
[7] CCc1ccccc1NC(=O)CNc1ncnc2sccc12
  0.0	10.7
[8] Cc1ccc(-c2nnc(NC(=O)CN3C(=O)CCC3=O)o2)c(C)c1
  5.1	1.1
[9] CCOC(=O)C1CCCN(CC(O)COc2ccccc2C(C)=O)C1 (stereo not drawn)
  -2.9	4.5
[10] O=C(CCC1CCCN(C(=O)c2sccc2Cl)C1)NC1CC1 (stereo not drawn)
  4.0	2.7
[11] COc1ccc(-c2nc3ccc(C4=NNC(=O)C(C)C4)cc3[nH]2)cc1 (stereo not drawn)
  -4.2	-7.8
[12] CC(=NNC(=O)CC12CC3CC(CC(C3)C1)C2)c1ccc(Cl)s1
  2.3	1.9
[13] Cc1ccc(C)c(Cn2ccnc2CN(CCN2CCOCC2)C(=O)CC(C)C)c1
  -2.1	3.5
[14] O=C1CC(c2ccccc2)N(C(=O)Nc2ccc(OC(F)F)cc2)CCN1 (stereo not drawn)
  8.2	2.7
[15] Cc1cc(NC(=O)C2CC2)n(-c2nc(-c3cccs3)cs2)n1
  -10.4	-15.2
[16] CN1C(=O)NC(c2ccc(F)cc2)C2=C1CN(CC(=O)NCc1ccccc1-c1ccccc1)C2=O (stereo not drawn)
  -1.7	6.3
[17] CN(C)N1C(=O)c2ccccc2C1(N)c1ccccc1 (stereo not drawn)
  0.3	0.7
[18] O=C(Cc1ccc(F)cc1)N(Cc1ccccn1)c1nc2ccc([N+](=O)[O-])cc2s1
  -0.6	-2.0
[19] O=C(c1cccc(F)c1)N1CCSC1c1ccc(OCc2ccccc2)cc1 (stereo not drawn)
  12.7	13.7
[20] CCSC1=NNC(=Cc2cc(=O)[nH]c(=O)[nH]2)N1c1cc(C)ccc1C
  -1.0	-1.9

Continued (three carried over from the part before).
Results follow in this order: NPYLR7 agonist	NPYLR7 agonist max-min
[18] O=C(Cc1ccc(F)cc1)N(Cc1ccccn1)c1nc2ccc([N+](=O)[O-])cc2s1
  -0.6	-2.0
[19] O=C(c1cccc(F)c1)N1CCSC1c1ccc(OCc2ccccc2)cc1 (stereo not drawn)
  12.7	13.7
[20] CCSC1=NNC(=Cc2cc(=O)[nH]c(=O)[nH]2)N1c1cc(C)ccc1C
  -1.0	-1.9
[21] CCn1c(C2CCCN(Cc3ccnn3-c3ccccc3)C2)nn(C)c1=O (stereo not drawn)
  0.6&26.1	-0.9&14.1
[22] O=C(Nc1cccc(Oc2ccncc2)c1)C1CCS(=O)(=O)C1 (stereo not drawn)
  3.8	0.8
[23] CCOC(=O)C1=C(C)NC(C)=C(C(=O)OCC)C1C(=O)OCC(=O)N1CCCCC1C (stereo not drawn)
  -3.7	-5.0
[24] FC(F)(F)c1cccc(Cn2c3[n+](c4ccc(C(F)(F)F)cc42)CCCCC3)c1
  4.8	2.6
[25] O=C(Nc1cccc(Cl)c1)Oc1ccccc1-c1ccccc1
  0.0	1.0
[26] CC1(C)CN2C(=O)C(NC(=O)c3ccccc3)(C(F)(F)F)N=C2S1 (stereo not drawn)
  15.7	5.5
[27] Cc1cc(C)nc(SCCn2c(N3CC(C)OC(C)C3)nc3c2c(=O)n(C)c(=O)n3C)n1 (stereo not drawn)
  4.5	3.9
[28] CCOc1ccc(-c2cc(C(=O)NCCc3cc(OC)ccc3OC)c3ccccc3n2)cc1
  -1.3	7.4
[29] O=[N+]([O-])c1c(-c2ccccn2)c(-c2ccccn2)n2ccccc12
  -0.4	-0.9
[30] CC(C)NC(=S)NC(=O)c1ccco1
  -4.4	-5.7
[31] N#CC1C(=O)NC(=O)[C@H]([n+]2ccccc2)[C@H]1c1cccc(OCC(N)=O)c1 (stereo partly drawn)
  2.9	2.0
[32] COCCCN(CC(=O)N(Cc1ccco1)Cc1cccn1C)C(=O)Nc1ccc(Cl)cc1
  1.8	10.3
[33] Cc1ccc2c(c1)C1CC(C)(O2)N(c2cccc(C(=O)O)c2)C(=O)N1 (stereo not drawn)
  -10.1	-14.1
[34] Cc1ccc2cc(CCNC(=O)c3cccc4ccccc34)c(=O)[nH]c2c1C
  0.9	-3.9
[35] Cc1ccccc1CN1CCN(Cc2cccn2-c2nccs2)CC1CCO (stereo not drawn)
  13.2	3.6
[36] O=C1CC(c2ccc(F)cc2)Cc2c1cnn2-c1nc2ccccc2[nH]1 (stereo not drawn)
  24.7	16.6
[37] CC(NC(=O)CNc1cc(N2CCCC2=O)ccc1Cl)C1CC1 (stereo not drawn)
  8.1	7.4
[38] CCOc1cccc(CN2CCOc3ccc(CN4CCC(O)(c5cccnc5)CC4)cc3C2)c1
  2.3	1.1
[39] COc1cc(CCNC(=O)CCCN=C2NS(=O)(=O)c3ccccc32)ccc1OC(F)F
  0.8	5.5
[40] COc1cccc(-n2cc(-c3ccnc(NCCc4cnc[nH]4)n3)cn2)c1
  10.2	7.6
[41] Cc1cc(Oc2cnn(-c3cccc(F)c3)c(=O)c2Nc2cccc(C(=O)NCC3CCCO3)c2)ccc1Cl (stereo not drawn)
  4.7	20.6
[42] CCC(NCC(=O)NCc1ccccc1F)c1nc(C)no1 (stereo not drawn)
  14.8	10.1
[43] CC(C)OC(=O)c1c(NC(=O)c2cnn3c(C(F)(F)F)cc(-c4ccc(Br)cc4)nc23)sc2c1CCCC2
  14.7	14.8
[44] Cc1cccc(CN2CCCn3cccc3C2c2ccc(Cl)c(Cl)c2)c1 (stereo not drawn)
  11.8	9.3
[45] Cn1c(=O)c2c(SCC(=O)N3CCCc4ccccc43)nc(-c3ccc(F)cc3)nc2n(C)c1=O
  -1.9	-0.9
[46] Cc1ccccc1Cn1c(C)c(C(=O)NCC2CC2)sc1=O
  9.8	6.1
[47] COc1ccc(-n2ncc(Oc3cccc(C)c3C)c(Nc3ccc(C(=O)NCc4cccnc4)cc3)c2=O)cc1
  -12.9	-8.4
[48] Cc1cc(N2CCN(Cc3noc(C)n3)CC2)nc(-c2ccccn2)n1
  9.7	6.7
[49] Cn1ccc(C(=O)NC(CC(C)(C)C)c2ccc(F)cc2)cc1=O (stereo not drawn)
  5.1	0.7
[50] O=C(C1COc2ccccc2O1)N1CCN(C(c2ccccc2)c2ccc(Br)cc2)CC1 (stereo not drawn)
  29.3	10.7
[51] Cc1ccccc1CS(=O)(=O)NC(C)(C)C
  -10.1	-12.7
[52] CC(Oc1ccccc1)C(=O)NC(c1ccc(S(C)(=O)=O)cc1)c1cccc(N(C)C)c1 (stereo not drawn)
  -6.3	-11.0
[53] O=C(c1ccc2nc(N3C(=O)c4ccccc4C3=O)sc2c1)N1CCOCC1
  -6.0	-3.5
[54] O=C(NCC(CO)Cc1cccc(OC(F)(F)F)c1)c1cnccn1 (stereo not drawn)
  8.8	6.9
[55] O=C(NC(C(=O)NC1CC1)C1CCN(C(=O)c2cccc(F)c2)CC1)c1cccs1 (stereo not drawn)
  -6.1	1.8
[56] O=C1Nc2ccccc2C12CCCN(c1noc(-c3ccccc3)n1)C2 (stereo not drawn)
  -8.5	-10.3
[57] O=C(NC1CCN(Cc2c(-c3cccnc3)[nH]c3ccccc23)C1)c1cc(F)cc(F)c1 (stereo not drawn)
  10.2	5.0
[58] CN(CC1CCCCO1)c1nccc(CCC(F)(F)F)n1 (stereo not drawn)
  -5.9	-9.0
[59] Cc1ccc(-n2nc(C)c(CCC(=O)N3CCc4ccccc4C3)c2C)cc1Cl
  -6.5	-13.7
[60] Cn1ncc2c(=O)n(CCC(=O)Nc3cccc(CN4CCCC4=O)c3)cnc21
  9.6	4.7
[61] O=C(CC1CC2CCC1C2)Nc1ccccc1C(=O)Nc1ccc2c(c1)OCO2 (stereo not drawn)
  -2.7	-4.0
[62] COc1ccc2ccc(O)c(CN3CCOCC3)c2c1
  6.6	2.3
[63] COCC(O)CN(C)C(C)c1nc(C(C)(C)C)no1 (stereo not drawn)
  7.0	5.1
[64] COc1ccc(OC)c(C2C(C#N)=C(C)NC3=C2C(=O)CC(c2ccc(Cl)cc2)C3)c1 (stereo not drawn)
  12.7	10.3
[65] Cn1nc(C(=O)NCc2ccccc2)c2c1CCN(Cc1cccc3nccnc13)C2
  18.9	7.5
[66] Cc1ccc(S(=O)(=O)NC(CC(C)C)c2nnc3n2CCNCC3)cc1 (stereo not drawn)
  7.7	6.1
[67] Cc1nc(-c2cccc(C(=O)NCCC3CN(C)CCO3)c2)no1 (stereo not drawn)
  2.2	1.3
[68] Cc1cc(C)n(CCNc2nncc(-c3ccc4c(c3)OCO4)n2)n1
  5.9&2.1	3.7&1.1
[69] CCn1ccc2cc(C(=O)N3CC[C@H](CO)[C@@H](O)C3)ccc21
  -1.5	-6.9
[70] CCN(CC1CCCO1)C(=O)c1cnn2c(C(F)(F)F)cc(C)nc12 (stereo not drawn)
  -5.2	-8.7

Remaining list, next part:
Results follow in this order: NPYLR7 agonist	NPYLR7 agonist max-min
[71] CCC(=O)Nc1cccc(C2SCC(=O)N2c2cccc(CC)c2)c1 (stereo not drawn)
  -7.2	0.1
[72] CCN1CCN(c2nc(-c3ccccc3)nc3cc(Cl)ccc23)CC1
  -8.1	-0.5
[73] CCOC(=O)c1c(NC(=O)C(C)Cl)c(-c2cccc(F)c2)cn1C (stereo not drawn)
  7.0	9.7
[74] CC1(C)CC(NS(=O)(=O)c2ccc3c(c2)OCCO3)CC(C)(C)N1
  -0.9&-4.9	-2.2&-6.8
[75] CN(Cc1ccccc1)C(=O)C1(C)CCN1C(=O)Cc1cccc2ccccc12 (stereo not drawn)
  -5.2	-7.2
[76] CCOC(=O)C1=C(C)NC2=C(C(=O)CC(c3ccc(Cl)cc3)C2)C1c1ccc(F)cc1 (stereo not drawn)
  -3.4	-5.1
[77] CC(=O)Oc1ccc2c(=O)c(-c3ccc4c(c3)OCCO4)coc2c1
  -4.2	-8.5
[78] COc1ccc(OC)c(C2N=C(N)Nc3nc4ccccc4n32)c1 (stereo not drawn)
  0.8	0.8
[79] c1ncn(CCSc2nnc(C3CC3)s2)n1
  -1.6	-4.5
[80] COc1ccc(C(=O)Cn2nc(C)c3cnn(C(C)(C)C)c3c2=O)cc1
  4.5	3.4
[81] COC(C)c1nc(C)c(C(=O)N2CCc3ccccc3CC2)s1 (stereo not drawn)
  5.1	2.8
[82] CC(Sc1nnnn1C1CCCC1)c1nc2scc(-c3cccs3)c2c(=O)[nH]1 (stereo not drawn)
  7.5	11.9
[83] Cc1cccc(COC(CN2CCN(C(=O)COCc3ccccc3)CC2)c2ccc(Cl)cc2)c1 (stereo not drawn)
  -2.5	4.0
[84] Cc1c(C)n2c3c(=O)[nH]c(=O)n(C)c3nc2n1C1CCCCC1
  14.3	4.0
[85] CCOC(=O)CN(C)C(=O)CCc1nnc(-c2ccc(-c3ccccc3)cc2)o1
  7.6	3.6
[86] O=C(CNCCN1CCCC1)N(Cc1ccc(F)cc1)Cc1cccs1
  6.2	9.6
[87] O=C(Cn1cnc2ccccc2c1=O)Nc1ccn(CCc2ccccn2)n1
  -3.9	-3.7
[88] Cc1noc(-c2ccnc(-c3ccc(C(N)=O)cc3)c2)n1
  17.8	10.4
[89] CCc1nnc(S(=O)(=O)Cc2csc(C(C)C)n2)n1C
  22.9	15.2
[90] CCOC(=O)CCCC(=O)N(Cc1ccco1)Cc1nc2cc(Cl)ccc2o1
  -4.6	-12.5
[91] Cc1ccccc1NC(=O)Nc1cccc(-n2nc(OC(C)C)nc2-c2cccs2)c1
  3.3	2.0
[92] CCCn1nc(C(=O)NC(C)c2ccccc2C)c2ccccc2c1=O (stereo not drawn)
  0.0	58.5
[93] CN1Cc2sccc2C(c2ccc(O)c(O)c2)C1 (stereo not drawn)
  4.7	-11.9
[94] COc1cc(-c2ccnc(N3CCN(C(=O)Cc4ccc(F)cc4)CC3)n2)cc(OC)c1OC
  4.0	1.8
[95] Cc1cc(CNC(=O)c2cc3ncccn3n2)c2[nH]c(C)c(C)c2c1
  -2.9	-6.5
[96] COc1cccc(C(=O)Oc2coc(CSc3nncn3C)cc2=O)c1
  22.4	4.4
[97] CC1(C(=O)NCCc2c[nH]c3ccccc23)CCN1C1Cc2ccccc2C1 (stereo not drawn)
  13.3	6.6
[98] COc1ccc(CCOC(=O)C2CCCCN2C(=O)/C=C/c2ccoc2)cc1OC (stereo not drawn)
  13.5	10.0
[99] Cc1cc(NC(=O)CSc2nc3c(-c4ccccc4)c(C)nn3c(=O)[nH]2)no1
  9.1	2.0
[100] N#Cc1ccc(NCC(O)c2ccco2)c(C(F)(F)F)c1 (stereo not drawn)
  2.5	1.3
[101] COc1ccc(Br)cc1/C=C/C(=O)N1CCCC(C(=O)Nc2ccccc2)C1 (stereo not drawn)
  0.6	-3.2
[102] O=C(NC1CCN(c2ccccc2C(=O)N2CCCC2)CC1)c1ccco1
  -1.9	3.1
[103] CCn1cnnc1CN(C)Cc1nc(-c2cc(OC)ccc2F)oc1C
  9.4	8.9
[104] CC(C)n1ccnc1CN1CCCC(OCc2cccnc2)C1 (stereo not drawn)
  1.7	0.4

Retrieved by structure from the list above:
Results follow in this order: NPYLR7 agonist	NPYLR7 agonist max-min
[4] COC(=O)c1ccc(NC(=O)c2c(-c3ccccc3Cl)noc2C)cc1
  6.2	8.9
[89] CCc1nnc(S(=O)(=O)Cc2csc(C(C)C)n2)n1C
  22.9	15.2

An excerpt; rates above refer to the full screens.
